Source: PubChem BioAssay
VDR inhibitor – vitamin D3 receptor (human) inhibition; P11473; Potency, µM, for inactives: max response, negative = inhibition, hits mostly inhibitors; VDR-SRC2-3 peptide fluorescence polarization, 2 h; AID 504847; actives 0.93% (n = 400,000); active = well fitted inhibition curve with a large enough effect; inconclusive = small, poorly fitted or top-dose-only effect, or another doubt; inactive = no such curve, though single readings can be large or run the other way; also: series mostly up to about 120 µM
Target sequence (P11473 whole entry, looked up): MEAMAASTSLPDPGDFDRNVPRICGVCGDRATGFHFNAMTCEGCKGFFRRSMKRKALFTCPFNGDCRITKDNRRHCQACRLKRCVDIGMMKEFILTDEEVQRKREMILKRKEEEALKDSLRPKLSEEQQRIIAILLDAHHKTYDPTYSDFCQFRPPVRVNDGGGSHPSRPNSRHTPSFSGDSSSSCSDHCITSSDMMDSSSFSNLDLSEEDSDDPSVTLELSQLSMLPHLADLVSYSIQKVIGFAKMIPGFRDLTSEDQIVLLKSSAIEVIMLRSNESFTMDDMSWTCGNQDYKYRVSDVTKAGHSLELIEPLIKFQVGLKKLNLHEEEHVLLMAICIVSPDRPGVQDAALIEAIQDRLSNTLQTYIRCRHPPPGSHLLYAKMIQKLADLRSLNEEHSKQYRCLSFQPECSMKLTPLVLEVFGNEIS
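After 23 nl compound addition and a short centrifugation, plates sat for 2 hours at ambient temperature; polarization of fluorescence then indicated loss of VDR binding to peptide SRC2-3.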
* hit, by the source's call; ? = inconclusive; [ ] = dose if it differs, or a comment. % is scaled to controls: 0 for no effect and ±100 for the full control effect; potency is read from the fitted curve at half-maximal effect.

Molecule | VDR inhibitor
CCOC(=O)CN(C(=O)CNC(=O)c1ccco1)C(C(=O)NC1CCCCC1)c1cccc(OC)c1 (stereo not drawn) | -5%
CCCCC(=O)Nc1ccc(C(=O)Nc2ccc3c(c2)OCO3)cc1 | -19%
COCCN(C(=O)COC(=O)CCOc1ccccc1)c1c(N)n(Cc2ccccc2)c(=O)[nH]c1=O | 7%
COc1ccc([C@H]2CC(=O)C=C(c3ccc(Cl)c(C(F)(F)F)c3)C2)cc1 | -3%
COc1cc(OC)c(C=CC(=O)c2ccccc2O)c(OC)c1 | 7%
CC(=O)C12C3C4C(C5C1C3C5(Br)C41OCCO1)C21OCCO1 (stereo not drawn) | -15%
CC(NC(=O)C(=O)N1CCCCC1)C(c1cccs1)N1CCN(c2ccc(F)cc2)CC1 (stereo not drawn) | 9%
COC(=O)CSc1nc2ncc(Cl)cc2[nH]1 | 15%
Cc1cccc(Nc2nnc(SCc3cc(=O)n4cc(C)ccc4n3)s2)c1 | -9%
O=C(C[C@H]1C[C@H](C(=O)N2CCCCC2)[C@@]2(CCc3ccccc3)c3[nH]c4cc(-c5ccco5)ccc4c3CCN2C1=O)NCc1ccco1 | -19%
CC1(C)CC(=O)C2=C(C1)N1C(=C(C#N)C2c2ccccc2Cl)N=C(N)c2ccccc21 (stereo not drawn) | -7%
CC(C)c1nnc(NC(=O)CCC(=O)NCc2ccc(F)cc2)s1 | -9%
Cc1ccc(-n2ncc3c(Nc4ccc(Oc5ccccc5)cc4)ncnc32)cc1 | 11%
N#Cc1c(N)nc2c(c1-c1ccccc1)CCC2 | -9%
O=C(Nc1ccc(-c2cc3ccccc3oc2=O)c(Cl)c1)c1cccnc1 | 9%
O=C(COC(=O)c1cccc2ccccc12)NCC1CCCO1 (stereo not drawn) | -4%
CCOC(=O)c1cnc(COc2ccccc2Cl)[nH]c1=O | -25%
CC(C)NC(=O)CSc1ccccc1C(=O)N1CCN(S(=O)(=O)/C=C/c2ccccc2)CC1 | -1%
CCCN(CC(=O)Nc1ccccc1OC)C(=O)CSc1ccc(Br)cc1C | ?
CCCC(C(=O)NC1CCCC1)N(Cc1ccc(OC)cc1)C(=O)c1snc(C(N)=O)c1N (stereo not drawn) | -5%
COc1ccc(CCNC(=O)c2ccc3c(c2)NC(=O)C(C(C)C)N3)cc1OC (stereo not drawn) | -5%
Cc1ccc(C)c(N2CCN(C(=O)C3CCN(S(=O)(=O)c4cn(C)cn4)CC3)CC2)c1 | -3%
N/N=C/C(=N\Nc1ccc(Cl)cc1)C(=O)c1ccncc1 | -8%
CC(=O)NC(CCS(C)(=O)=O)C(=O)Nc1ccc(C)c(F)c1 (stereo not drawn) | 26%
COc1ccc(NC(=O)Nc2cn(CC(C)C)c(=O)c3ccccc23)c(OC)c1 | -2%

The list continues.
Molecule | VDR inhibitor
O=C(COc1ccc(Cl)cc1)NN=C1CCCCCCC1 | -16%
Cc1ccc([N+](=O)[O-])cc1NCC(=O)NN | -11%
O=C(NCc1cccnc1)C1CCN(S(=O)(=O)c2cccc(C(F)(F)F)c2)CC1 | -28%
O=C(COC(=O)c1cc(Cl)nc(Cl)c1)NCc1ccc2c(c1)OCO2 | -24%
Cc1sc(NC(=O)c2ccccc2)c(C(=O)c2ccccc2)c1C | 56µM*
CCN(CC)S(=O)(=O)c1cc(NC(=O)CN2C(=O)NC3(CCCc4ccccc43)C2=O)ccc1C (stereo not drawn) | -13%
O=C(CN1C(=O)S/C(=C\c2ccccc2F)C1=O)NC1CCS(=O)(=O)C1 (stereo not drawn) | -3%
CSc1ccccc1C(=O)NCCS(=O)(=O)N1CCN(c2ccc(F)cc2)CC1 | -1%
O=C1CN(C(=O)Cc2ccccc2)C(c2ccc(F)cc2)c2cc(Br)ccc2N1 (stereo not drawn) | 0%
Cc1cccn2c(=O)c(/C=C(\C#N)C(=O)NCc3ccco3)c(N3CCCC(C)C3)nc12 (stereo not drawn) | 10%
CCCCn1c(N)c(N(CC(C)C)C(=O)C2CC(=O)N(Cc3ccco3)C2)c(=O)[nH]c1=O (stereo not drawn) | -3%
CN1OCC(S(=O)(=O)c2ccccc2)C1c1ccccc1 (stereo not drawn) | -7%
COc1cc(-c2cc(C(=O)Nc3nc4ccccc4s3)c3ccccc3n2)cc(OC)c1OC | -16%
Cc1ccccc1-c1nnn(CC(=O)N2CCN(C(=O)c3ccco3)CC2)n1 | -2%
C(=Nc1ccccc1)c1ccc[nH]1 | -16%
Cc1c(C(=O)NCc2ccccc2F)oc2ccccc12 | -2%
Cc1ccccc1C(=O)Nc1ccnn1C1CCN(Cc2cnn(C(C)C)c2)CC1 | 4%
CC1=C(C#N)C(=O)NC(=O)/C1=C/c1ccc(-c2ccc(S(N)(=O)=O)cc2)o1 | 25µM*
COc1ccc2cc3cc(C(=O)Nc4ccc5c(c4)OCCO5)oc3nc2c1 | -2%
O=C(CNC(=O)c1cccs1)OCc1ccc(Br)cc1 | 11%
Nc1ccc2c(c1)C(=O)N(CCCC(=O)O)C2=O | 1%
O=C(NCc1ccccc1)C(c1ccc(F)cc1)N(C(=O)c1csnn1)c1ccccc1 (stereo not drawn) | 3%
CCOc1cc(C)c(C(C)C)cc1S(=O)(=O)N1CCOCC1 | 5%
Cc1c(C(=O)NC(C)C)c(-c2ccccc2)nn1-c1ccccc1 | 5%
CN(C)CCNC(=O)c1ccc2c(c1)N(Cc1ccc(F)cc1)CCS2 | -15%

Other entries:
Molecule | VDR inhibitor
COc1ccc(NC(=S)NNC(=O)c2nnn(-c3ccccc3)c2C)cc1 | -26%
CN1CCN(CCCNC(=O)C2CCN(c3nnc(-n4cccc4)s3)CC2)CC1 | -8%
Cc1cc(C=O)c(O)cc1O | 5%
Cc1ccc(C(=O)Nc2ccc(C(=O)/C=C/c3cccs3)cc2)cc1 | 18%
CCOC(=O)N1CCC(NC(=O)CC2C(=O)NCCN2Cc2ccccc2)CC1 (stereo not drawn) | -6%
CCOC(=O)Cn1cc(/C=N/N2C(=O)C3C4C=CC(C4)C3C2=O)c2ccccc21 (stereo not drawn) | ?
CCc1noc(C)c1C(=O)Nc1ccc(S(=O)(=O)N2CCCC(C)C2)cc1 (stereo not drawn) | 5%
CC12CCC(=O)N1C(C(=O)OCc1c(Cl)cccc1Cl)CS2 (stereo not drawn) | 16%
CN(Cc1ccccc1)C(=O)c1nc2ccccn2c1CNCCn1cccn1 | -7%
CC(=O)c1ccc2c(c1)C1C=CCC1C(c1ccncc1)N2 (stereo not drawn) | -16%
C#CCOCCOCCOCCNc1nc(N2CCN(C(=O)Cn3cc(CC(C)O)nn3)CC2)nc(N2CCN(C(=O)[C@H](CCCCN)n3cc(CC(C)O)nn3)CC2)n1 (stereo partly drawn) | -8%
Cc1c2cnn(CC(=O)NCc3ccccn3)c(=O)c2c(C)n1Cc1ccc(Cl)cc1 | 1%
COC(=O)NC(c1ccccc1)c1c[nH]c2ccccc12 (stereo not drawn) | -19%
O=C(Nc1nccs1)c1cc(S(=O)(=O)N2CCOCC2)c(Cl)cc1Cl | -5%
Cc1ccc(S(=O)(=O)c2nnn3c2nc(NCc2ccc4c(c2)OCO4)c2sccc23)cc1 | 12%
CCc1noc(C)c1C(=O)N1CCN(S(=O)(=O)c2cccs2)CC1 | 4%
CC1(C)CC(=O)C=C(c2cccnc2)C1 | -17%
COc1ccccc1N1CCN(c2ncnc3c2c(-c2ccccc2)cn3-c2cccc(Cl)c2)CC1 | 18%
COc1ccc(NC(=O)C(c2ccccn2)N(C(C)=O)c2ccc(C)cc2)cc1 (stereo not drawn) | -3%
S=C(NCc1ccccc1)NNc1ccccc1 | -27%
COc1cc(CNCCN2CCOCC2)ccc1OCc1ccc(Cl)cc1Cl | -12%
COc1ccc(C(=O)COC(=O)C(CCCCN2C(=O)C3C4C=CC(C4)C3C2=O)N2C(=O)C3C4C=CC(C4)C3C2=O)cc1 (stereo not drawn) | 4%
O=C(Nc1ccc(F)cc1)Nc1cc(S(=O)(=O)N2CCOCC2)ccc1N1CCCC1 | -9%
COc1ccc(C(c2nnnn2C(C)(C)C)N2CCN(C(=O)c3ccco3)CC2)cc1 (stereo not drawn) | -4%
O=C(OCc1ccccc1)N1CCC2CC1c1c(-c3ccc(C(F)(F)F)cc3)cccc12 (stereo not drawn) | -11%

Entries above shown as hits in VDR inhibitor:
Molecule | VDR inhibitor
Cc1sc(NC(=O)c2ccccc2)c(C(=O)c2ccccc2)c1C | 56µM*
CC1=C(C#N)C(=O)NC(=O)/C1=C/c1ccc(-c2ccc(S(N)(=O)=O)cc2)o1 | 25µM*

Five records drawn at random from those above, as already listed:
Molecule | VDR inhibitor
Cc1ccc(C(=O)Nc2ccc(C(=O)/C=C/c3cccs3)cc2)cc1 | 18%
CCc1noc(C)c1C(=O)N1CCN(S(=O)(=O)c2cccs2)CC1 | 4%
O=C(Nc1ccc(F)cc1)Nc1cc(S(=O)(=O)N2CCOCC2)ccc1N1CCCC1 | -9%
S=C(NCc1ccccc1)NNc1ccccc1 | -27%
COc1ccccc1N1CCN(c2ncnc3c2c(-c2ccccc2)cn3-c2cccc(Cl)c2)CC1 | 18%

(more compounds)
Molecule | VDR inhibitor
O=C(NCC1CCCO1)c1cc(-c2ccccc2F)no1 (stereo not drawn) | -12%
CC(=O)NCc1c(Cl)cccc1-n1cccc1 | -5%
CC1CCC(NC(=O)c2ccc3c(c2)N(Cc2ccccc2F)C(=O)c2ccccc2S3=O)CC1 (stereo not drawn) | -12%
Cc1cc(C)c2c(N)c(C(=O)Nc3ccccc3C(F)(F)F)sc2n1 | 12%
Nc1nc(-c2ccc(Br)cc2)c(S(=O)(=O)c2ccccc2)s1 | -16%
COC(=O)/C=c1/s/c(=C(\C#N)C(=O)NCc2ccco2)n(-c2ccc(C)cc2)c1=O | 119%[activator]
COc1ccc(/C=N/NC(=O)Cn2ccnc2C)cc1OC | -14%
CC[C@H](C)[C@H](NC(=O)CNC(=O)COc1cc2c(c3oc(=O)cc(C)c13)CCC(C)(C)O2)C(=O)O | -16%
CC(=O)NCCn1c(SCC#N)nc2ccccc2c1=O | 3%
N#Cc1cccc(NC(=O)c2ccc(S(=O)(=O)N3CCOCC3)cc2)c1 | 11%
COc1ccccc1CNC(=O)CN1CCN(Cc2ccc(Cl)cc2)C1=O | 8%
COC(=O)c1ccc(NS(=O)(=O)c2cccc3cccnc23)cc1 | 5%
COc1cc(C2C(C#N)=C(N)Oc3n[nH]c(-c4cccnc4)c32)cc(Br)c1O (stereo not drawn) | 12%
Cc1ccc(OC(=O)c2cccc(S(=O)(=O)N3CCCC3)c2)c(-n2nc3ccccc3n2)c1 | -7%
CC(C)Cn1cc(NC(=O)N2CCN(c3ccccc3F)CC2)c2ccccc2c1=O | 17%
O=C(COc1ccccc1F)OCC(=O)N1CCc2ccccc21 | -1%
CN(C)CCOc1ccc(Cl)cc1C(C)(C)C | 5%
CS(=O)(=O)N1CCN(C(=O)c2ccccc2F)CC1 | 10%
NS(=O)(=O)c1ccc(NC(=O)Cc2c(F)cccc2Cl)cc1 | 21%
CCCCC(=O)Nc1nc(C)c(-c2csc(Nc3cc(OC)ccc3OC)n2)s1 | -5%
COc1ccc(CC(=O)Nc2cc(S(=O)(=O)N3CCCCC3)ccc2N2CCN(C)CC2)cc1 | 0%
COc1ccc2c(c1)c1c(c(=O)n(-c3ccc(F)c(Cl)c3)c(=O)n1Cc1ccccc1C)n2C | 5%
CCCN1CCN(CC2=C(C(=O)OCC)C(c3ccc(OC(C)C)cc3)NC(=O)N2)CC1 (stereo not drawn) | -21%
COc1cc(CCC(=O)Nc2ccc(S(=O)(=O)NC3=NCCCCC3)cc2)cc(OC)c1OC | 5%
COC(=O)c1c(-c2cccc(OC)c2)csc1N | -20%

A run of entries from the list above, as a working copy:
Molecule | VDR inhibitor
CCCN1CCN(CC2=C(C(=O)OCC)C(c3ccc(OC(C)C)cc3)NC(=O)N2)CC1 (stereo not drawn) | -21%
COc1cc(CCC(=O)Nc2ccc(S(=O)(=O)NC3=NCCCCC3)cc2)cc(OC)c1OC | 5%
COC(=O)c1c(-c2cccc(OC)c2)csc1N | -20%

New compounds follow.
Molecule | VDR inhibitor
C=Cc1ccc(COC(=O)c2cn(CC)c3nc(C)ccc3c2=O)cc1 | 7%
CCOc1ccc(-n2cc(-c3ccccc3)c3c(NC4CCCC4)ncnc32)cc1 | 10%
OCCCNc1nccc(-c2cc(Nc3cccc(Cl)c3)ncn2)n1 | -9%
CCOC(=O)c1sc(NC(=O)C2CC(=O)N(c3ccc(OC)cc3)C2)nc1C (stereo not drawn) | -13%
COC(=O)c1ccc([C@@H]2C[C@H]3CN(Cc4cccnc4)C(=O)[C@]34CCCN24)cc1 | -21%
Cc1cccc2nc(-c3ccco3)oc(=O)c12 | -12%
CCOc1cc(CNc2ccc(N3CCCCC3)cc2)cc(Br)c1OCC(=O)NC(C)(C)C | -16%
CCN(CC)c1ccc2c(c1)oc(=O)c1c(Cl)cc(=O)oc12 | ?
CCc1nnc(NC(=O)CSc2nc3cccnc3n2C2CCCCC2)s1 | -16%
CCc1ccc(NC(=O)CSc2nc3c([nH]c4ccccc43)c(=O)n2C)cc1 | 9%
CCc1ccc(/C=C(\Cl)c2nc3cc(Cl)ccc3c(=O)[nH]2)cc1 | -13%
CC(C)Cn1c(N)c(/C=N/NC(=O)c2ccc(Cl)cc2)c(=O)n(C)c1=O | -1%
CC1CCN(c2ccc3nnc(CCC(=O)Nc4ccc(F)cc4)n3n2)CC1 | -5%
CNc1ccc(/C=C(\C#N)c2ccccn2)cc1[N+](=O)[O-] | -6%
O=C(NCc1ccc(Cl)cc1)c1n[nH]c([N+](=O)[O-])c1Cl | ?
COc1ccc(CC(=O)OCc2cc(=O)n3cc(Br)ccc3n2)cc1OC | -8%

The list is partial; count on the stated rates, not on these rows.
